RecA intein inh: Mtb RecA intein splicing inhibitors, primary screen, biochemical, fluorescence, HTS | actives 0.75% (n = 290,000) | cell-free RecA intein splicing | Protein RecA (Mycobacterium tuberculosis (strain ATCC 25618 / H37Rv)), P9WHJ3 | inhibition, %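 (about 9 µM by stock and volumes)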; in the data active means inhibition above about 30%; inconclusive means no clear call, values can overlap the other calls;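 further: 0% = vehicle wells and 100% = reference inhibitor control wells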
Target sequence (P9WHJ3 whole entry, looked up): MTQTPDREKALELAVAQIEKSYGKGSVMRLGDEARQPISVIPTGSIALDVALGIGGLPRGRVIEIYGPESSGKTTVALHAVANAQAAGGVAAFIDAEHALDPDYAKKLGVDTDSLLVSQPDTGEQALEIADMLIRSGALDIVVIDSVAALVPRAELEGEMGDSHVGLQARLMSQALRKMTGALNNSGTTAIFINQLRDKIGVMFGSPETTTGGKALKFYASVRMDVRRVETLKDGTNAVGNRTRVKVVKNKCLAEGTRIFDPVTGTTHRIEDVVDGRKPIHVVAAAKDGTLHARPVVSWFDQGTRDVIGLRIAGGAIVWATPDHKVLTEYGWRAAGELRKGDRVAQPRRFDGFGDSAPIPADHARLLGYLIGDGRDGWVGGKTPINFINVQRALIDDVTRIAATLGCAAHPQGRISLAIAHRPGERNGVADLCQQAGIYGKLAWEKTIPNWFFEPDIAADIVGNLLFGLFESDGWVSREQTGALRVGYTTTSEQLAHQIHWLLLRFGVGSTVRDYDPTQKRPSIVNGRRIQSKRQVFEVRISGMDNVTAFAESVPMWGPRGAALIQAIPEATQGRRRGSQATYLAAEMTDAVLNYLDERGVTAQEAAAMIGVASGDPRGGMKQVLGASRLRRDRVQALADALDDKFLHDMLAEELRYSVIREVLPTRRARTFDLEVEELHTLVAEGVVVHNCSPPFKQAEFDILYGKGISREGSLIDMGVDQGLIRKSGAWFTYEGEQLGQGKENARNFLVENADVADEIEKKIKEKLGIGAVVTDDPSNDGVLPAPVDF
Arbovirus anti: antivirals against arbovirus infection, primary screen, cell-based, full library, 10K replicate subset; arbovirus infection cell-based antiviral screen; inhibition, % at 10 µM; actives 0.37% (n = 200,000);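 active means inhibition from about 30%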;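 further: bluetongue infection of BSR cells; cell survival read as ATP light after 72 h; 0% = infected wells without compound and 100% = uninfected wells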
Mtb growth: M. tuberculosis H37Rv growth inhibitors, H37Rv strain (AID 1626); M. tuberculosis H37Rv growth inhibition; higher % means a stronger effect; inhibition, % at 10 µM; hits with a dose series show IC50 in µM; actives 0.95% (n = 220,000);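 active means confirmed in a dose series; inconclusive means inhibition above 80% but not taken into the dose series; inactive means below 80% or under 30% at every dose of the series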;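 further: bacteria incubated seven days before Alamar blue readout; 0% = bacteria only wells and 100% = bacteria with antibiotic wells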
Mtb bLac sens: beta-lactam sensitization of Mtb H37Rv, H37Rv | M. tuberculosis H37Rv growth with meropenem, percent inhibition; hits of this screen are not shown here | inhibition, % at 25 µM | actives 0.27% (n = 330,000) | AID 434955, 2010;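 active means about 74% or more and at least 40 points above the plate without the antibiotic, then above 30% in a dose series; inconclusive means first-round hits that could not be retested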;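 further: growth measured after seven days incubation then overnight dye step; 0% = bacteria only wells and 100% = bacteria with antibiotic; twin plates without the antibiotic show which effects depend on it; some results filed as inactive read as strong as hits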
YopH PTP inh: YopH tyrosine phosphatase inhibitors, primary screen, biochemical, fluorescence Ex485/Em525; inhibition, %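 (about 10 µM by stock and volumes)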; actives 0.16% (n = 140,000); AID 898, 2007;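 active means inhibition of 50% or more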;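 further: controls were vehicle for no effect and minimum signal wells for full effect; inactives centre near -20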
Arbovirus anti repeat: further read-out of Arbovirus anti, marked with its call; inhibition, %; measured here: 10K subset replicate screen; many hits read low in the repeat;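 first of two repeat runs on a subset; 0% = infected and 100% = uninfected wells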
* = called active by the depositor; ? = inconclusive; . = not tested or not shown. Some of the compounds tested; rates above refer to the full screens.

SMILES | RecA intein inh | Arbovirus anti | Mtb growth | Mtb bLac sens | YopH PTP inh | others
C=C1CCN([C@@H](Cc2ccccc2)C(=O)Nc2ccc(OC)cc2)S(=O)(=O)c2ccccc21 | 5.8 | . | -1.1% | 3.0 | .
COc1ccc(OC)c(C2/C(=C(\O)c3ccc4c(c3)OCCO4)C(=O)C(=O)N2CC2CCCO2)c1 (stereo not given) | -0.9 | . | . | 3.2 | .
COc1cc(-c2nc(CN3CCCN(C(=O)c4ccco4)CC3)c(C)o2)ccc1F | 0.4 | 3.5 | -3.0% | -5.6 | .
COC(=O)c1c(-c2ccccc2)csc1NC(=O)CSc1ncnc2sc(C)c(C)c12 | 0.0 | 5.8 | 10.8% | 4.0 | -34.8
CC1=C(C(=O)OCC2CCCO2)C(c2ccc(Cl)cc2)NC(=O)N1 (stereo not given) | 13.4 | 6.1 | -2.9% | -4.7 | .
CCC(C)OC(=O)C1=C(C)NC2=C(C(=O)C(C(=O)OC)C(C)C2)C1c1ccc(N(C)C)cc1 (stereo not given) | -10.4 | 0.2 | 4.3% | -5.4 | -69.8 | Arbovirus anti repeat=-0.1
COc1cccc(-c2cc(C(=O)Nc3c(C)nn(Cc4ccccc4C)c3C)no2)c1 | -1.4 | -3.1 | -0.3% | 2.5 | -25.8
CCc1cc2c(s1)N(CC(=O)OC)C(=O)CN=C2c1ccccc1OC | 1.0 | 5.9 | -3.3% | -9.1 | .
COc1ccc(NC(=O)CSc2ccc3c(c2)OCCO3)cc1OC | -2.0 | 4.3 | -0.1% | -3.9 | -0.5
O=[N+]([O-])c1cc(S(=O)(=O)c2ccc(N3CCCCC3)c([N+](=O)[O-])c2)ccc1N1CCCCC1 | 3.0 | 8.7 | 0.0% | -1.7 | -24.9
c1coc(C2Nc3ccccc3-c3nc4ccccc4n32)c1 (stereo not given) | -0.6 | 4.0 | 11.6% | 3.8 | -9.5 | Arbovirus anti repeat=-7.3
CN(CC(=O)NCCCN1CCOCC1)S(=O)(=O)c1ccc(F)cc1 | -1.7 | . | . | 0.9 | .
CCCC(=O)N1CCN(c2ccc(NC(=O)C(C)(C)C)cc2)CC1 | -0.6 | 1.8 | 2.4% | -2.6 | -9.8
CCOc1ccc(OCC)c(NC(=O)CC2Oc3ccc(C)cc3NC2=O)c1 (stereo not given) | -0.3 | -12.1 | 2.5% | 4.0 | -44.6
OC(CNC1CCCC1)COc1c(F)cc(Br)cc1F (stereo not given) | -2.3 | 6.9 | -7.4% | 7.4 | -16.9
C=CCn1c(SC/C=C/c2ccccc2)nnc1-c1sc(N)nc1C | 3.9 | -0.2 | 0.1% | 0.4 | -18.0
COC(=O)c1c(NC(=O)CC2SC(N)=NC2=O)sc2c1CCC(C(C)(C)C)C2 (stereo not given) | 2.8 | -31.0 | 16.4µM* | 81.0 | -12.5
CCN(CC)C(=O)c1sc2nc(-c3ccncc3)[nH]c(=O)c2c1C | -2.7 | -7.1 | . | -22.5 | -43.8
CC(=O)Oc1cccc(C(=O)Nc2cccc(C(=O)Nc3ccccc3C(=O)O)c2)c1 | -2.1 | . | . | 2.0 | .
CCC(C(=O)NCCCc1ccccc1)n1nc(C)c2c(C)n(-c3ccccc3)nc2c1=O (stereo not given) | -0.1 | . | . | 8.8 | .
CSCCC(NS(=O)(=O)c1ccc(C)cc1)C(=O)N1CCN(C(C)=O)CC1 (stereo not given) | -1.2 | . | . | 2.3 | .
Cc1ccc(OCc2cc(C(=O)N3CCCCCCC3)no2)cc1C | 4.3 | . | . | 7.2 | .
Cc1ccc(S(=O)(=O)/N=C(\N)Nc2nc(C)c3cc(C)ccc3n2)cc1 | -0.9 | 8.9 | 22.1% | -1.5 | -46.6
CCOc1cc(/C=C2/N=C(c3ccc(C(C)(C)C)cc3)OC2=O)cc(Cl)c1OS(C)(=O)=O | . | -1.1 | 2.5% | 6.1 | -22.4
C[C@@H]1O[C@@H](O[C@H]2C[C@@H](O)[C@]3(CO)[C@H]4[C@H](O)C[C@]5(C)[C@@H](C6COC(=O)C6)CC[C@]5(O)[C@@H]4CC[C@]3(O)C2)[C@H](O)[C@H](O)[C@H]1O (stereo not given in full) | -1.3 | 3.1 | 8.5% | 4.0 | -29.0
SMILES | RecA intein inh | Arbovirus anti | Mtb growth | Mtb bLac sens | YopH PTP inh | others
O=C(Nc1ccc(S(=O)(=O)Nc2ncccn2)cc1)c1cncc(Br)c1 | -1.6 | -3.5 | 3.0% | 5.4 | -17.9
Cc1cc(N2CCCCC2)nc2ccc(NC(=O)CCC(=O)NCCC(C)C)cc12 | -1.0 | -8.5 | -6.6% | -8.4 | -14.2
CC1=C(C(=O)Nc2ccccc2C(F)(F)F)C(c2ccc(C)s2)NC(=S)N1 (stereo not given) | 1.1 | 11.1 | -1.1% | 3.5 | .
O=C(O)c1ccc2c(c1)C(=O)N(NC(=O)c1ccccc1)C2=O | -0.8 | 5.5 | -4.4% | -7.5 | -31.1
COc1ccc(C(=O)CSc2nc(C)cc(C)n2)cc1[N+](=O)[O-] | -1.4 | 1.3 | -0.8% | 1.6 | .
COc1ccc2oc(=O)c(-c3cn4ccc(C)cc4n3)cc2c1 | -8.9 | -18.7 | 0.7% | 8.4 | .
CCCC(=O)N1CCN(c2nnc(-c3ccc(C)cc3)c3ccccc23)CC1 | 1.0 | . | . | 86.1 | .
CCOC(=O)C1CCN(c2ccc(Cl)nn2)CC1 | -0.4 | 5.1 | 2.0% | -6.0 | .
COc1ccc(N2C(=O)CC(N(C)CCc3ccc(OC)c(OC)c3)C2=O)cc1 (stereo not given) | 2.1 | 1.1 | -13.2% | -4.4 | .
Cn1c(SCC(=O)NCCN2C(=O)CSC2=O)nc2ccccc2c1=O | 1.7 | 0.4 | -10.2% | -0.6 | -38.9
Cc1ccc(CN(Cc2cc3cc4c(cc3[nH]c2=O)OCCO4)Cc2nnnn2Cc2ccco2)cc1 | 10.2 | -18.2 | 2.6% | 72.6 | -12.5
CCCOc1ncnc2c1sc1nc3c(cc12)COC(C)(C)C3 | -2.1 | -0.2 | -2.5% | 1.8 | .
Cc1cccc(NC(=O)NC(C)C(c2cccs2)N2CCOCC2)c1 (stereo not given) | -0.2 | 3.8 | 2.4% | -4.5 | -39.3
NS(=O)(=O)c1ccc(Nc2ccc3nonc3c2[N+](=O)[O-])cc1 | 5.6 | 7.5 | 6.5% | 1.7 | .
CCc1ccc(C(=O)COC(=O)c2cc([N+](=O)[O-])ccc2N2CCOCC2)cc1 | -0.8 | . | . | 11.2 | .
COc1cc(-c2cc(C(=O)Nc3cccc(C(C)=O)c3)c3ccccc3n2)cc(OC)c1OC | -4.5 | . | . | 1.7 | .
CC(C(=O)NC1CCCCC1)N1CCN(C)CC1 (stereo not given) | 1.6 | . | -4.8% | -15.7 | .
O=C(C(Cc1ccccc1)N1C(=O)C2C3C=CC(C3)C2C1=O)N1CCCCC1 (stereo not given) | -1.4 | -0.4 | -1.6% | -8.3 | -0.9
COc1ccc(NC(=O)CCCCCn2nnc3ccccc3c2=O)cc1OC | -0.7 | . | . | -7.1 | .
COc1ccccc1NC(=O)CSc1ccc(-c2ccc(-n3ccnc3)cc2)nn1 | -1.4 | . | . | -1.9 | .
O=C1CCC/C(=N/NC(=O)C2CCN(S(=O)(=O)c3cccs3)CC2)C1 | -2.1 | 1.4 | -9.9% | 2.6 | -22.1
Cc1ccc(S(=O)(=O)N2CCN(C(=O)COc3ccc(NC(=O)c4ccco4)cc3)CC2)cc1 | -2.8 | -0.3 | 3.8% | -1.7 | -12.7
CCOc1ccc(N2CC(C(=O)Nc3ccc(N4CCOCC4)cc3)CC2=O)cc1 (stereo not given) | 4.3 | -7.5 | -6.9% | -11.2 | -14.4
CC(=O)c1ccc(NC(=O)c2onc(C)c2Cl)cc1 | 0.3 | . | . | 1.5 | .
CCOC(=O)c1nc(-c2ccccc2)oc1N(C)C | . | 6.0 | 1.4% | 1.2 | -17.1
SMILES | RecA intein inh | Arbovirus anti | Mtb growth | Mtb bLac sens | YopH PTP inh | others
CCN(CC)CCC#CC(O)(c1ccccc1)c1ccccc1 | -0.8 | 2.8 | -3.2% | 5.6 | -16.1
COc1ccc(-c2[nH]ncc2CN(C)C(C)c2cccs2)c(F)c1 (stereo not given) | 0.9 | 15.9 | 0.6% | -1.3 | .
CC(c1ccon1)N(C)Cc1cn[nH]c1-c1ccc(F)cc1F (stereo not given) | -1.2 | . | -3.9% | -10.8 | .
Cc1cc(C)nc(OC(C(=O)O)C(OCC(C)C)(c2ccccc2)c2ccccc2)n1 (stereo not given) | 0.7 | . | . | -2.6 | .
CCN(CC)S(=O)(=O)c1ccc(Cl)c(NC(=O)COC(=O)c2cccn2C)c1 | 1.3 | 6.8 | 4.1% | 6.1 | .
COc1ccc(-c2cc3cc(OC)c(OC)cc3c(C)n2)cc1C | -3.2 | . | 1.9% | 58.2 | .
O=C(N/N=C/C=C/c1ccccc1)c1ccncc1 | 0.0 | 1.4 | ? | 98.0 | -14.3
Cc1cc(OCCOCCN2CCCC2)ccc1C(C)C | -0.7 | -14.7 | -9.2% | -7.7 | -9.0
Cc1cc(C)nc(SCc2cccc(C(=O)O)c2)n1 | -1.0 | 5.2 | -4.7% | -0.7 | -1.9
CCn1c(SCC(=O)Nc2nc(C)cs2)nnc1-c1ccncc1 | -3.1 | . | . | -9.1 | .
CC(C)Cc1nn2c(=O)cc(O)nc2s1 | -1.1 | 2.2 | -4.3% | 1.7 | -35.6
O=C(COC(=O)/C=C/c1ccccc1)Nc1ccc(Cl)cn1 | 0.2 | . | . | 1.1 | .
CCOC(=O)C1CCCCN1C(=O)CCc1c(C)nc2cc(-c3ccccc3)nn2c1C (stereo not given) | -2.4 | 4.3 | . | -6.9 | -35.5 | Arbovirus anti repeat=-1.4
CCCC(=O)NC1CCCc2c1cnn2-c1ccc(C)c(C)c1 (stereo not given) | 1.0 | . | . | 2.1 | .
CCN(C(=O)CSc1ncn[nH]1)c1c(N)n(Cc2ccccc2)c(=O)[nH]c1=O | -0.1 | . | . | 4.0 | .
CN(C)C1(CNC(=O)Cc2ccccc2F)CCCCC1 | -0.6 | . | . | -7.4 | .
O=S(=O)(c1ccc(C(F)(F)F)cc1)N1CCCN(c2ccc(C(F)(F)F)cn2)CC1 | -1.4 | . | 17.6% | -4.4 | .
CC(C)(CN1CCC(Cc2ccccc2)CC1)NS(=O)(=O)c1ccccc1 | -1.7 | . | 11.8% | -9.1 | .
COc1ccc(C(=O)Nc2c(C)ccc3nsnc23)cc1[N+](=O)[O-] | -0.2 | 2.5 | 8.9% | -1.7 | -8.7
COC(=O)CN(C(=S)Nc1ccc(F)cc1)C1CC(=O)N(c2ccc(OC)cc2)C1=O (stereo not given) | 2.8 | -6.6 | -3.6% | -0.8 | -41.9
CC(C)CCn1c(CN2CCN(Cc3ccccc3)CC2)nc2c1c(=O)[nH]c(=O)n2C | -1.4 | -2.2 | -5.9% | 10.6 | -24.5
Fc1ccc(Nc2nnns2)cc1 | 1.0 | . | -2.4% | -7.0 | .
CNC(=O)c1csc(-c2ccncc2)n1 | -3.8 | 3.8 | -3.8% | -23.7 | -10.4
O=C(O)c1cccc(S(=O)(=O)Nc2ccccc2C(=O)NCCc2ccccc2)c1 | -0.6 | . | . | -7.2 | .
C/C(=N\O)C(=O)NCCCn1ccnc1 | -3.6 | -10.3 | -1.9% | -1.7 | -23.2
SMILES | RecA intein inh | Arbovirus anti | Mtb growth | Mtb bLac sens | YopH PTP inh | others
CCOC(=O)c1sc(NC(=O)/C=C/c2cnn(C)c2C)c(C(=O)OCC)c1C | -1.8 | 0.0 | . | ? | -20.1
O=C(NCc1ccccc1)c1ccccc1Br | -0.7 | 5.6 | 9.0% | 5.0 | .
CCC1(N(C(C)=O)c2ccc(OC)cc2)C(=O)c2ccccc2C1=O | 5.0 | 1.4 | -2.7% | 0.0 | -27.3
CC(=O)c1cccc(NC(=O)CSc2nc(=O)n(Cc3ccccn3)c3c2CCC3)c1 | 4.7 | . | . | -8.0 | .
CCN(CC)S(=O)(=O)c1ccc(S(=O)(=O)N2CCC(C(=O)NC3CCN(Cc4ccccc4)CC3)CC2)cc1 | -2.3 | . | . | 3.2 | .
COc1ccc(NC(=O)CN(C)CC(=O)Nc2ccc(Cl)cc2F)cc1 | 3.2 | -2.7 | 43.7% | 33.3 | .

Structural class: those above with a CF3 group.
SMILES | RecA intein inh | Arbovirus anti | Mtb growth | Mtb bLac sens | YopH PTP inh | others
CC1=C(C(=O)Nc2ccccc2C(F)(F)F)C(c2ccc(C)s2)NC(=S)N1 (stereo not given) | 1.1 | 11.1 | -1.1% | 3.5 | .
O=S(=O)(c1ccc(C(F)(F)F)cc1)N1CCCN(c2ccc(C(F)(F)F)cn2)CC1 | -1.4 | . | 17.6% | -4.4 | .
